Source: PubChem BioAssay (National Center for Advancing Translational Sciences (NCATS))
VDR inh = Inhibitors of the vitamin D receptor (VDR): qHTS; Potency, µM, for the others: max response, negative = inhibition, usual class: inhibitors; Vitamin D3 receptor (Homo sapiens), P11473; VDR-SRC2-3 peptide fluorescence polarization, 2 h; hit rate 0.93% among 400,000; AID 504847, 2011; active = well fitted inhibition curve with a large enough effect; inconclusive = small, poorly fitted or top-dose-only effect, or another doubt; inactive = no such curve, though single readings can be large or run the other way; also: series mostly up to about 120 µM
Target sequence (P11473 whole entry, looked up): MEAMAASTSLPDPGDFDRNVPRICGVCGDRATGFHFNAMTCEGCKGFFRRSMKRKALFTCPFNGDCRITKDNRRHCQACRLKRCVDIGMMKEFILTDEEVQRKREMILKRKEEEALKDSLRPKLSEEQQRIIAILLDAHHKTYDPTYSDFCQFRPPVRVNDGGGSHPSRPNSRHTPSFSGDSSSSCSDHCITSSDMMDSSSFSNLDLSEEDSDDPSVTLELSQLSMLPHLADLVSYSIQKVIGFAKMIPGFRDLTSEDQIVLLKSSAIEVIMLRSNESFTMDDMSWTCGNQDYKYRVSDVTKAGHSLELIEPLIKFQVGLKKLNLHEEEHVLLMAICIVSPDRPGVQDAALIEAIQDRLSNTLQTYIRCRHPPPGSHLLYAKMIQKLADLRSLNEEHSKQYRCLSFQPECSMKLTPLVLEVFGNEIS
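Fluorescence polarization assay measuring small-molecule disruption of VDR binding to the coregulator peptide SRC2-3. Compounds were pin-transferred (23 nl) into the reagent mix and incubated 2 h at room temperature before reading.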
The depositor's hits bear a star; ? = inconclusive; & = joins results of further samples. % is scaled to controls: 0 for no effect and ±100 for the full control effect; potency is read from the fitted curve at half-maximal effect.

VDR inh	SMILES
13.9%	COc1ccccc1CNC(=O)C(=O)Nc1ccc(C(=O)N2CCC(C)CC2)cc1
-17.1%	Cc1cc(=O)oc2cc(OCC(=O)N3CCN(C(=O)C4COc5ccccc5O4)CC3)ccc12 (configuration not stated)
-15.7%	COc1ccc(/C=N/NC(=O)CCn2nnc3ccccc32)cc1
?	COc1ccc(/C=C/C(=O)c2cc(F)ccc2OC(=O)c2ccccc2OC)cc1OC
89.1µM*	Oc1ccccc1C(=S)N1CCN(c2cccc(Cl)c2)CC1
7.6%	Cc1ccc(NC(c2nnc(-c3ccccc3)o2)c2ccccc2F)c([N+](=O)[O-])c1 (configuration not stated)
3.4%	COC(=O)c1[nH]c2ccccc2c1NS(=O)(=O)c1ccc(F)c(C)c1
-1.2%	O=C(COc1ccccc1)Nc1ccc2nc(SCC(=O)N3CCCC3)sc2c1
-5.8%	O=C1CN(C(=O)NCC(=O)N[C@@H](C(=O)O)c2ccccc2)c2ccccc2N1
-5.1%	O=C(CN(C(=O)c1csnn1)c1ccccc1C(F)(F)F)NCc1ccccc1
11.3%	CNS(=O)(=O)c1cccc(C(=O)OCC(=O)Nc2ccccc2OC(F)F)c1
-6.0%	CCOc1ccc(C2Nc3ccccc3NC3=C2C(=O)CC(C)(C)C3)cc1OC (configuration not stated)
13.7%	Cc1ccc(OCCSc2nc3ccc(NC(=O)c4ccc5c(c4)OCO5)cc3s2)cc1
3.3%	Cc1ccc(C(=O)N2CCN(c3ncnc4c(C)csc34)CC2)cc1
-6.0%	O=C(O)/C=C/c1ccc2c(c1)OCCO2
-17.0%	CC(=O)c1cccc(S(=O)(=O)N2CCCC(c3nc(-c4ccc(C)o4)no3)C2)c1 (configuration not stated)
-9.9%	CN(CCC#N)C(=S)NC(=O)c1ccc(S(=O)(=O)N2CCOCC2)cc1
-15.0%	COc1ccc(CNC(=O)COC(=O)c2cccn2C)cc1
-20.4%	COc1ccc2[nH]cc(S(=O)(=O)c3ccc(F)cc3)c(=O)c2c1
44.7µM*	CCOC(=O)N1CCN(/[N+]([O-])=N/Oc2ccc([N+](=O)[O-])cc2[N+](=O)[O-])CC1
9.1%	COc1cc(/C=C(/NC(=O)c2ccccc2)C(=O)N2CCN(C)CC2)c([N+](=O)[O-])cc1OC
5.7%	CCN(CC)c1nc(N2CCOCC2)c(C#N)c2c1CN(C)CC2
0.4%	Cc1ccc(C)c(N2CCN(CCCNC(=O)Cn3cccc3C(=O)c3ccccc3)CC2)c1
10.0%	OCCC#Cc1ccc(CN2CCN(Cc3ccccc3)C(CCO)C2)cc1 (configuration not stated)
-18.5%	NNC(=O)c1ccc(CN2C(=O)c3cccc4cccc2c34)cc1
2.5%	CN(Cc1nc2ccccc2c(=O)[nH]1)C(=O)c1cccc(S(=O)(=O)N2CCCC2)c1
2.6%	Cc1ccc2[nH]c3c(=O)n(CCc4cnc[nH]4)cnc3c2c1
-2.7%	COc1ccc(C(=O)NCCc2nnc3ccc(SCC(=O)Nc4cc(C)on4)nn23)cc1
-4.4%	O=C(ONC1=NCCCCC1)c1ccc(Cl)cc1
12.8%	O=C(Nc1nc(-c2cccs2)cs1)c1cccc(S(=O)(=O)N2CCCCC2)c1

VDR inh	SMILES
-7.7%	CC(C)c1nn2c(=O)cc(COC(=O)CNC(=O)c3ccccc3)nc2s1
-3.7%	O=C(Nc1ccc(NC(=O)c2cccs2)cc1)c1ccc(Br)o1
-12.6%	COCCNC(=O)c1ccc(CN2CCC(Cc3ccccc3)CC2)cc1
-15.6%	Cc1nc2ccccc2cc1OCc1ccc(Cl)cc1
-1.3%	COc1ccc(C2(c3ccc(OC)cc3)NC(=O)N(CC(=O)NC3CCS(=O)(=O)C3)C2=O)cc1 (configuration not stated)
-4.1%	Cc1cc(NC(=O)c2c(-c3c(Cl)cccc3Cl)noc2C)n(C)n1
-6.5%	COc1ccc(NC(=O)CN(C)C(=O)c2ccc3[nH]c4c(c3c2)CC(C)CC4)cc1 (configuration not stated)
-17.6%	Cn1c(=O)n(C)c2cc(NC(=O)COc3ccc(F)cc3F)ccc21
-1.0%	COc1ccccc1C(=O)N/C(=C\c1cn(S(=O)(=O)N(C)C)c2ccccc12)C(=O)N1CCCC1
19.8%	O=C(Cc1cccs1)Nc1nnc(-c2ccncc2)s1
-15.2%	Cc1ccc(SCC(=O)O/N=C(\N)c2ccncc2)cc1
-7.3%	Cc1ccc(NC(=O)Nc2nnc(CSCCOc3ccc(Cl)cc3)s2)cc1
-9.4%	Cc1ccc(-c2n[nH]c(=O)c3ccccc23)cc1S(=O)(=O)NCCO
14.3%	COC(=O)c1c(SC)nc2ccccc2c1OCc1ccc(C)cc1C
4.3%	Cc1noc(C)c1NC(=O)N(C)C[C@H]1Oc2c(NC(=O)C3CC3)cccc2C(=O)N([C@H](C)CO)C[C@@H]1C
5.5%	Cc1[nH]c2ccc(S(N)(=O)=O)cc2c1C
-14.1%	Cc1nnsc1Sc1ccccc1
3.8%	CC1CCc2cccc3c2N1c1cc(C#N)c(C#N)cc1O3 (configuration not stated)
29.7%	COc1ccc(OC)c(CCNC(=O)c2nn(C)c3c2CS(=O)(=O)c2ccccc2-3)c1
-7.8%	CCOc1ccc(C(=O)NCC(=O)OCC(=O)c2ccc3c(c2)-c2ccccc2C3)cc1
-3.5%	COc1cc(C(=O)NCC(c2ccc(F)cc2)N2CCOCC2)ccc1OCc1ccccc1Cl (configuration not stated)
-4.4%	COc1ccc(-c2cc(C(=O)N3CCCCCC3)no2)cc1OC
-3.5%	O=c1[nH]c2ccc(S(=O)(=O)Nc3cc(Cl)ccc3O)cc2o1
2.9%	CCn1ncc(Br)c1C(=O)Nc1ccc(-c2ccno2)cc1
-19.4%	CCCc1cc(=O)[nH]c(SCC(=O)N2c3ccccc3CC2C)n1 (configuration not stated)
-1.6%	O=c1oc2ccccc2cc1-c1nc2c(s1)CCCC2
-16.5%	O=C(CN1C(=O)NC2(CCCC2)C1=O)Nc1ccc(F)c([N+](=O)[O-])c1
3.3%	CC(C)c1ccccc1Oc1c(C(F)(F)F)oc2c(CN3CCN(C)CC3)c(O)ccc2c1=O
-0.3%	CCC(C)(C)NC(=O)/C=C/c1cccs1
-4.2%	CNS(=O)(=O)c1cnccc1N1CCN(c2cccc(Cl)c2)CC1

VDR inh	SMILES
10.0%	CC(=O)C1=NOC2C(=O)N(c3ccc(Cl)cc3)C(=O)C12 (configuration not stated)
6.2%	COc1cc2cc(CNc3ccccc3)c(=O)n(CC(=O)Nc3ccccc3)c2cc1OC
-14.3%	O=C(/C=C/c1cccc(Cl)c1)OCc1cn2cc(Cl)ccc2n1
-6.2%	COc1ccc(/C=C/C(=O)O)cc1S(=O)(=O)NCc1ccco1
-1.4%	COC(=O)c1sccc1NC(=O)COc1ccc(Cl)cc1Cl
12.7%	COCC(=O)N1CCC(Oc2ccc(C(=O)N3CCCCCC3)cc2)CC1
6.7%	O=C(Nc1cccc(O)c1)C(Cc1ccccc1)N1C(=O)c2cccc3cccc(c23)C1=O (configuration not stated)
-5.3%&-1.4%	CC[C@@]1(O)C(=O)OCc2c1cc1n(c2=O)Cc2cc3c(CN(C)C)c(O)ccc3nc2-1
-5.1%	O=C(c1cc(COc2c(F)cccc2F)on1)N1CCCCCC1
-2.2%	N#Cc1cc2c(nc1SCC(=O)NCc1ccc3c(c1)OCO3)CCCCC2
-11.1%	O=C(O)CSc1cn(Cc2ccccc2)c2ccccc12
4.7%	O=C(CCc1cn(Cc2ccc(F)cc2)c2ccccc12)NC1CCCCC1
19.5%	COc1ccccc1CCN1COc2c(cc3c(C)c(C)c(=O)oc3c2C)C1
50.1µM*	O=c1c(C(c2ccc(O)cc2)c2c(O)nc3n(c2=O)CCCS3)c(O)nc2n1CCCS2
-20.0%	Cc1c(C(=O)N2CCN(Cc3ccc4c(c3)OCO4)CC2)cccc1[N+](=O)[O-]
3.5%	Cc1ccc(O)c(NC(=O)CCC2CCCCC2)c1
?	CC1=C(/C=C/C(C)=C/C=C/C(C)=C\CO)C(C)(C)CCC1
-0.4%	Cc1ccccc1OCC(=O)OCC(=O)c1cc(C)n(C2CC2)c1C
10.0%	Cc1cccnc1NC(=O)C1COc2ccccc2O1 (configuration not stated)
-10.4%	CCOc1cc(C=O)c(Br)cc1OC1CCCC1
-2.0%	Cc1cccc(Cn2c(SCC(=O)Nc3ccccc3)nc3c2c(=O)[nH]c(=O)n3C)c1
1.4%	CCN(CC)C1CCCCC1NS(=O)(=O)c1ccc(Cl)cc1 (configuration not stated)
0.4%	COc1ccc(Cl)cc1NC(=O)C1CCN(S(=O)(=O)c2ccc3c(c2)CCCN3C(=O)C2CCC2)CC1
5.4%	CCOc1ccc(S(=O)(=O)Nc2cc(Cl)ccc2OC)c2cccnc12
0.2%	O=C(OCCN1C(=O)c2ccccc2C1=O)c1ccc(S(=O)(=O)N2CCCCCC2)cc1
-1.5%	O=C(c1ccco1)N1CCN(c2nc3ccccc3c(=O)n2-c2ccccc2)CC1
-13.4%	Cc1cccc(NC(=O)CSc2nnc(Cc3ccccc3)o2)c1
15.3%	Cc1occc1C(=O)N/N=C/C(Br)=C/c1ccccc1
2.8%	O=C(NNC(=O)c1ccc(F)cc1F)c1ccc(-n2cnnn2)cc1
-10.3%	COc1cc(C(=O)NC(=S)N(CCc2ccccc2)CCc2ccccc2)cc(OC)c1OC

In the list so far, 11 have an aryl thioether with sulfur outside any ring.
VDR inh	SMILES
-1.2%	O=C(COc1ccccc1)Nc1ccc2nc(SCC(=O)N3CCCC3)sc2c1
13.7%	Cc1ccc(OCCSc2nc3ccc(NC(=O)c4ccc5c(c4)OCO5)cc3s2)cc1
-2.7%	COc1ccc(C(=O)NCCc2nnc3ccc(SCC(=O)Nc4cc(C)on4)nn23)cc1
-15.2%	Cc1ccc(SCC(=O)O/N=C(\N)c2ccncc2)cc1
14.3%	COC(=O)c1c(SC)nc2ccccc2c1OCc1ccc(C)cc1C
-14.1%	Cc1nnsc1Sc1ccccc1
-19.4%	CCCc1cc(=O)[nH]c(SCC(=O)N2c3ccccc3CC2C)n1 (configuration not stated)
-2.2%	N#Cc1cc2c(nc1SCC(=O)NCc1ccc3c(c1)OCO3)CCCCC2
-11.1%	O=C(O)CSc1cn(Cc2ccccc2)c2ccccc12
-2.0%	Cc1cccc(Cn2c(SCC(=O)Nc3ccccc3)nc3c2c(=O)[nH]c(=O)n3C)c1
-13.4%	Cc1cccc(NC(=O)CSc2nnc(Cc3ccccc3)o2)c1

(more compounds)
VDR inh	SMILES
-8.0%	CN1N=C2c3ccccc3CCC2C1c1ccc(C(F)(F)F)cc1 (configuration not stated)
7.1%	Cc1ccc(NC(=O)COC(=O)C2CCN(c3ccc(C(F)(F)F)cn3)CC2)cc1
?	CC(=O)c1c(C)[nH]c(C2=NNC(=NC(C)(C)C)SC2)c1C
-18.5%	CCCCC(=O)Nc1c2c(nn1-c1ccc([N+](=O)[O-])cc1)CS(=O)(=O)C2
5.7%	CCCCN1CC(=O)N2[C@H]3c4ccccc4OC[C@@H]3[C@H](C(=O)OCC)[C@]2(C)C1=O
17.8%	O=C(O)CC(NNC(=O)c1ccccc1)C(=O)Nc1ccc([N+](=O)[O-])cc1 (configuration not stated)
-0.7%	CCc1ccccc1N(C)C(=O)Cn1cnc2sc(C)c(S(=O)(=O)N3CCN(c4ncccn4)CC3)c2c1=O
-14.7%	Cc1cccc(C2c3[nH]c4ccccc4c3CCN2C(=O)c2cc(CC(C)C)[nH]c(=O)n2)n1 (configuration not stated)
8.3%	COc1ccc([C@H]2CC(=O)C=C(c3cccc4c3sc3ccccc34)C2)cc1OC
-3.8%	Cn1c(=O)c2c(nc(SCC(=O)NC3CCCC3)n2C)n(C)c1=O
14.3%	Cc1cc(OCC(=O)C(C)(C)C)c2c(C)c(C)c(=O)oc2c1
-0.2%	COCCNC(=O)C1(C)C=CC2(CCCCC2)N1C(=O)c1ccccc1 (configuration not stated)
5.1%	O=C(COCc1cc(-c2ccco2)on1)Nc1ccc(OC(F)(F)F)cc1
-7.4%	O=C(NC1CCN(Cc2ccccc2)CC1)c1cccc(S(=O)(=O)Nc2cc(C(F)(F)F)ccc2Cl)c1
-0.3%	C/C(CC(=O)Nc1ccc2c(c1)OCCO2)=N\NC(=O)c1ccccc1Cl
5.1%	CCOC(=O)C1C(C)=C(Nc2ccc(OC)cc2)C(=O)N1c1ccc(OC)cc1 (configuration not stated)
2.5%	CC(O)c1nc2ccccc2n1CC(=O)Nc1ccc(F)cc1Cl (configuration not stated)
-7.2%	CCOc1ccc(-c2[nH]ncc2Oc2ccccc2OC)c(O)c1
3.4%	COc1cc(C(=O)NNC(=O)C2CCCC2)cc(OC)c1OC
19.0%	O=C(c1ccc(Br)o1)N(c1ccc(Br)cc1)C1C=CS(=O)(=O)C1 (configuration not stated)
-18.5%	Cc1nn(C(C)C(=O)NCCN2CCCC2)c(=O)c2c1sc1ccccc12 (configuration not stated)
-0.2%	COc1ccc(S(=O)(=O)Nc2ccc(F)cc2)cc1N(C)S(=O)(=O)c1ccc(Cl)cc1
8.4%	Cc1cc(C)n(-c2nc(N(C)C)nc(N3CCOCC3)n2)n1
-3.1%	O=C(NNc1nc2c(F)cccc2s1)c1ccccc1
-13.5%	C/C(=N\Nc1ccc(Cl)cc1)c1ccccn1
13.1%	Cn1c(N2CCN(c3ccccn3)CC2)nc2c1c(=O)n(Cc1ccc(Cl)cc1)c(=O)n2C
-1.8%	CNC(=O)c1c(NC(=O)c2ccco2)sc2c1CCC2
12.2%	CCO[C@H]1OC(C(=O)O)=C[C@@H](C(C)(C)C)[C@@H]1CCCO
-10.7%	Cc1ccc(SCC(Cc2ccccc2)N2CCN(CCc3ccccc3)CCC2=O)cc1 (configuration not stated)
-8.7%	CC(=O)N1CCN(C(=O)Nc2cccc(C(F)(F)F)c2)CC1
3.8%	Cc1cccc(NC(=S)N2CCN(c3ccccc3)CC2)c1
8.9%	S=C(NCc1ccccc1)Nc1ccc2cn[nH]c2c1
19.8%	COc1ccc(Cl)cc1NC(=O)CSc1nnc2[nH]c(=O)cc(C)n12

Not all compounds are listed, so the mix of outcomes need not match the whole.
